Screens (PubChem)
Ab BasE inh: blocks the Acinetobacter baumannii siderophore enzyme BasE | purified BasE, fluorescence polarization binding displacement | inhibition, % (test concentration not listed) | 84,000 tested, 0.1% active;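 active = both replicates above 25% with normal brightness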;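 also: 0% = negative plate control signal and 100% = positive plate control signal; stock transfer was 100 nL into about 30 µL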
KSHV LANA nucl: inhibitors of KSHV LANA binding to nucleosomes; FITC-LANA1-23 / chicken nucleosome fluorescence polarization; hits give low values; z-score (concentration not given with the values); 51,000 tested, 0.3% active;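 active = both repeat wells score below -2 in polarization z-score versus plate sample wells, excluding overly bright wells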;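 also: 100 nL library stock added to about 30 µL; numbers are from one replicate; some results filed as inactive read as strong as hits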
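System – purified chicken nucleosomes with FITC-labelled LANA N-terminal peptide (1-23) · Amount – 240 nM purified chicken nucleosomes (480 nM peptide binding sites), final · Also added – 50 nM FITC-LANA1-23 probe · Medium – TEN-BT buffer, pH 7.5 · Incubation – compound with peptide–nucleosome mix 10–45 min at room temperature · Detection – fluorescence polarization, ex 480 nm, em 535 nm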
Active calls of the source: *; . = no result given. Some of the compounds tested; the hit share may differ from the screen's.

SMILES	Ab BasE inh	KSHV LANA nucl
Cc1onc(-c2c(F)cccc2Cl)c1C(=O)N(CCO)CCO	1.6	.
COCCn1c(N)c(C(=O)c2cccc(S(=O)(=O)N3CCCCCC3)c2)c(=O)[nH]c1=O	-0.1	.
COc1ccccc1-c1nc(-c2cccc(Br)c2)no1	2.8	-1.15
CCCN(CCC)c1c(Cl)c(Cl)nc(C(=O)O)c1Cl	0.0	.
Cc1nn(-c2ccccc2)nc1CNS(C)(=O)=O	-1.3	1.04
COc1ccc(NC(=O)C2CCN(Cc3cnn(-c4ccccc4)c3-n3cccc3)CC2)cc1OC	-2.6	0.126
Oc1ccc2c(c1)[nH]c1ccccc12	5.7	.
Oc1ccc(CCc2n[nH]c(=S)n2CCc2ccccc2)cc1	-4.3	.
CCN1C(=O)C2(c3ccccc31)c1c(oc3ccccc3c1=O)C(=O)N2CCCOC (stereo not given)	0.3	0.601
Cc1ccc(NC(=O)c2cc3ccccc3c([N+]#N)c2[O-])cc1	0.1	-0.515
Cc1ccccc1-c1nnc2s/c(=C\c3ccccc3)c(=O)n12	0.3	0.323
CCCCNC(=O)c1ccc(NC(C)=O)cc1	1.6	.
CNC(=O)COc1ccc(Nc2nnc(-c3ccc(C)cc3)c3ccccc23)cc1	1.9	.
CCCc1nc2c(sc3nc4c(cc32)COC(C)(C)C4)c(=O)n1N	0.5	-0.902
CCN(CC)C(=O)CP(=O)(c1ccccc1)c1ccccc1	-1.2	0.372
O=C(CSc1nnc2ccccn12)NC(=O)Cc1ccccc1	5.3	.
COc1cc(-c2nnc(COC(=O)[C@H](C(C)C)N3C(=O)c4ccccc4C3=O)o2)cc(OC)c1OC	0.7	.
Cc1cc(NC(=O)COC(=O)C2CCCCC2)no1	1.9	.
Clc1ccc(SCc2cn3ccsc3n2)cc1	0.3	-0.803
CCOC(=O)C1CCN(C(=O)c2sc(-c3ccc4c(c3)CCO4)nc2C)CC1	-0.4	.
CCN(CC)c1ccc(C=C2C(=O)c3ccccc3C2=O)c(OC)c1	-4.3	.
Cc1ccc(C)c(CNC(=O)c2nc3c(nnn3CC3CCCO3)c(=O)[nH]2)c1 (stereo not given)	3.8	-0.121
OCc1nc(-c2ccc(Cl)cc2)n2ccccc12	-1.4	.
CN(C(=O)CSc1nc(N)c(NC(=O)c2ccccc2)c(=O)[nH]1)c1ccccc1	-0.6	0.571
O=C(NCCc1ccccc1)C1CCCN1C(=O)Nc1ccccc1 (stereo not given)	-0.2	-0.902
CN(C(=O)c1cc2sccc2n1C)C1CCCCC1	0.8	0.426
Cc1ccc(Nc2nc(C3(C)CC(C(C)C)C(=O)O3)cs2)cc1 (stereo not given)	2.8	.
N#CCC(=O)Nc1cccc2ncccc12	7.4	.
COc1ccc(C2CC(=O)N(c3ccccc3)C3=C2C(=O)CCC3)c(OC)c1 (stereo not given)	2.5	0.349
O=S(=O)(CCN1CCSCC1)c1ccccc1	-1.2	.
CCOC(=O)CSc1nnc(Cc2ccc(OC)c(OC)c2)o1	0.8	-0.57
CC1=CS(=O)(=O)CC1SC(=S)N(C)C1CCS(=O)(=O)C1 (stereo not given)	1.0	.
O=C(CC1NC2CCCCC2NC1=O)Nc1ccc2c(c1)OCCO2 (stereo not given)	1.7	-0.735
CC1(C)CC2CC(C)(CN2C(=O)COC(=O)Cn2[nH]c(=O)c3ccccc3c2=O)C1 (stereo not given)	8.1	.
N#Cc1cccnc1NNC(=O)CC1(CC(=O)O)CCCC1	0.8	-0.143
COC(=O)COc1ccccc1C#N	.	-0.152
CS(=O)(=O)N(Cc1ccccc1)c1ccccc1	3.2	0.77
Cc1ccc(C2=CC(c3cccs3)n3c(nc4ccccc43)N2)cc1C (stereo not given)	-1.4	-1.1
O=C(Cn1c(=O)n(-c2ccc(F)cc2)c(=O)c2oc3ccccc3c21)NCc1ccc2c(c1)OCO2	2.2	-0.413
O=C(CC1NCCN(Cc2ccccc2)C1=O)N/N=C/c1cc(Cl)cc(Cl)c1O (stereo not given)	-0.9	-0.178
CC(=O)N1CCc2cc(S(=O)(=O)NC(C)C(=O)O)ccc21 (stereo not given)	-1.0	-0.785
Cc1cc(P(=N)(N2CCOCC2)N2CCOCC2)c(C)n1-c1ccc(I)cc1	-0.3	.
Cc1oc2c(c1C(=O)NC(C)(C)C)C(=O)c1ccccc1C2=O	-1.4	2.6
N#C/C(=C\c1ccccc1)C(=O)NN1CCOCC1	-0.6	.
C/C(N)=C(/C#N)C(=O)CSc1nc2ccccc2n1CC(C)C	1.3	.
CCCn1cc(C(=O)c2ccc(C)cc2)c(=O)c2ccc(C)nc21	-5.1	2.29
COc1ccc(Cn2c(N)c(S(=O)(=O)c3ccccc3)c3nc(C#N)c(C#N)nc32)cc1	1.3	.
CCOC(=O)c1c(/N=C/C2C(=O)c3ccccc3C2=O)sc(C)c1C	-0.7	.
Cc1cc(C(=O)CSc2nccn2Cc2ccccc2)c(C)n1-c1ncn[nH]1	-14.2	.
COc1ccc(-c2cc(=NCCc3ccccc3)c3cc(C)ccc3o2)cc1	-5.0	.
Cc1cccn2c(=O)c(/C=C3\SC(=S)N(C)C3=O)c(N3CCCC3)nc12	-16.6	.
O=C(NCc1ccccc1)NC1(C(=O)N2CCCC2)CCCCC1	-4.7	-0.345
O=C1CCCC(=O)C1C1c2ccccc2Oc2ccc(F)cc21 (stereo not given)	0.0	0.415
C=CCNC(=O)CSc1ccc(F)cc1	.	-0.739
CNC(=O)c1nc(-c2ccccc2)no1	2.0	0.212
COc1cc2c(cc1/C=C1/NC(=O)N(Cc3ccccc3)C1=O)OCO2	2.4	0.523
CC(C)(C)C1=CC(CO)CC(CO)C1 (stereo not given)	0.4	-0.117
Cc1ccc(OC(=O)c2cc3ccccc3o2)cc1	1.9	.
O=C(c1cc2ccccc2o1)N(C1CC1)C1(C(=O)Nc2ccccc2)CCCC1	2.4	.
NS(=O)(=O)c1ccc(NC(=O)c2cn(-c3ccccc3)nc2-c2cccs2)cc1	1.9	.

Continuation:
SMILES	Ab BasE inh	KSHV LANA nucl
O=C(CSCc1ccc(F)cc1)N1CCN(c2ccccc2)CC1	2.4	-2.03
Cc1cc(C)c2c(n1)SCC(=O)N2CC(=O)NCCCN1CCOCC1	2.7	-0.774
CC(C)c1cccc(C(C)C)c1OC(=O)NC(=O)c1c(F)cccc1F	0.5	.
Cc1oc(C(C)(C)C)cc1C(=O)NCc1csc2ccc(Cl)cc12	1.4	.
COc1ccc(C(=O)OCc2ccccc2C(F)(F)F)c(O)c1	2.2	.
O=C(Nc1ccc(-c2cn3ccsc3n2)cc1)c1ccccc1	1.6	.
CN(C)c1ccc(CNC(=O)c2ccc(CN(Cc3ccccc3)C(=O)Nc3ccccc3)o2)cc1	-0.7	0.119
COc1ccc(CN(C(=O)c2cccc(Cl)c2)C2CCS(=O)(=O)C2)cc1OC (stereo not given)	-0.2	.
CCc1cc(C(=O)Nc2sccc2C(N)=O)cs1	-4.5	0.378
CCOC(=O)c1cnc2c(C(=O)OC)c[nH]n2c1=O	0.0	1.75
N#CCCN(Cc1ccccc1)C(=O)c1ccccc1	0.3	0.205
Cc1cc(N2CCN(C)CC2)nc2ccc(NC(=O)NC3CCCC3)cc12	-2.8	.
O=C(NCCc1ccccn1)c1ccc2nccnc2c1	-0.4	.
C/C(=N\NC(=O)Cn1nnc(-c2cccc(C(F)(F)F)c2)n1)c1ccncc1	1.3	.
Cc1cccc(C(=O)N/C(=C/c2ccco2)C(N)=O)c1	-0.9	1.24

A second format for part of the listing above:
SMILES | Ab BasE inh | KSHV LANA nucl
Cc1ccc(OC(=O)c2cc3ccccc3o2)cc1 | 1.9 | .
O=C(c1cc2ccccc2o1)N(C1CC1)C1(C(=O)Nc2ccccc2)CCCC1 | 2.4 | .
NS(=O)(=O)c1ccc(NC(=O)c2cn(-c3ccccc3)nc2-c2cccs2)cc1 | 1.9 | .
O=C(CSCc1ccc(F)cc1)N1CCN(c2ccccc2)CC1 | 2.4 | -2.03
Cc1cc(C)c2c(n1)SCC(=O)N2CC(=O)NCCCN1CCOCC1 | 2.7 | -0.774
CC(C)c1cccc(C(C)C)c1OC(=O)NC(=O)c1c(F)cccc1F | 0.5 | .
Cc1oc(C(C)(C)C)cc1C(=O)NCc1csc2ccc(Cl)cc12 | 1.4 | .
COc1ccc(C(=O)OCc2ccccc2C(F)(F)F)c(O)c1 | 2.2 | .
O=C(Nc1ccc(-c2cn3ccsc3n2)cc1)c1ccccc1 | 1.6 | .
CN(C)c1ccc(CNC(=O)c2ccc(CN(Cc3ccccc3)C(=O)Nc3ccccc3)o2)cc1 | -0.7 | 0.119
COc1ccc(CN(C(=O)c2cccc(Cl)c2)C2CCS(=O)(=O)C2)cc1OC (stereo not given) | -0.2 | .
CCc1cc(C(=O)Nc2sccc2C(N)=O)cs1 | -4.5 | 0.378
CCOC(=O)c1cnc2c(C(=O)OC)c[nH]n2c1=O | 0.0 | 1.75
N#CCCN(Cc1ccccc1)C(=O)c1ccccc1 | 0.3 | 0.205
Cc1cc(N2CCN(C)CC2)nc2ccc(NC(=O)NC3CCCC3)cc12 | -2.8 | .
O=C(NCCc1ccccn1)c1ccc2nccnc2c1 | -0.4 | .

Next part
SMILES	Ab BasE inh	KSHV LANA nucl
Cc1c(C(=O)Nc2ccc(S(=O)(=O)N3CCCCC3C)cc2)oc2ccccc12 (stereo not given)	1.0	.
Cc1ccc(S(=O)(=O)c2nc(NCCN3CCOCC3)sc2Cl)cc1	1.3	0.391
C=C1C(C(=O)Nc2nccs2)C1C(=O)Nc1nccs1 (stereo not given)	0.9	.
CCOC(=O)c1c(C)[nH]c(C)c1S(=O)(=O)Nc1cc(C)cc(C)c1	3.1	.
CNC(=O)c1ccc(N2CCCS2(=O)=O)cc1	-0.4	.
O=C(CSc1nc2cc(Cl)ccc2c(=O)n1Cc1ccccc1)N1CCOCC1	1.5	.
Nc1ncc(Br)cc1S(=O)(=O)NCCC(=O)Nc1nccs1	-0.8	1.2
CN(C)CCNC(=O)c1ccccc1	0.6	.
Cc1nc2cc(NC(=O)NC3=NCCS3)ccc2n1C	-2.5	0.303
CCOC(=O)N1CCN(c2nc3c(c(=O)n(C)c(=O)n3C)n2CCSc2nnc(C)s2)CC1	-0.2	-1.1
Nc1nc2sc3c(c2cc1C(=O)N1CCOCC1)CCCC3	0.7	-0.683
O=C(CN1CCC(c2nc3ccccc3s2)CC1)N1CCCCC1	-2.6	0.303
COC(=O)c1cc(OC)c(OC)cc1NS(=O)(=O)c1ccsc1C(=O)OC	-1.1	.
CCC(C)n1c(SCC(=O)OC)nnc1-c1cccc(S(=O)(=O)N2CCOCC2)c1 (stereo not given)	-0.1	.
O=c1cc(-c2cccs2)nc(-c2cccc(I)c2)o1	1.1	.
Cc1ccc(C2=NNC(c3cccnc3)=Nc3ccc(F)cc32)o1	-1.9	-0.121
CN(CC(=O)N=c1sccn1C)S(=O)(=O)c1ccc(Cl)cc1	-2.4	.
CCOC(=O)/C(C#N)=C/c1ccsc1	0.2	-0.354
OCC(O)C(O)C(O)C(O)c1nc2ccccc2[nH]1 (stereo not given)	1.1	.
C=C(C)Cn1c(=O)c2c(nc3n2CC(C)CN3Cc2ccccc2)n(C)c1=O (stereo not given)	1.5	-0.045
CN1CCN(S(=O)(=O)c2ccc(Cc3ccc(S(=O)(=O)N4CCN(C)CC4)cc3)cc2)CC1	0.7	-2.29
O=C(NC1(C(F)(F)F)OCCO1)c1ccc(F)cc1	3.9	0.348
CCc1nc2ccc(C(=O)NCCc3ccco3)cc2nc1CC	1.7	-2.17*
Cc1cc(Oc2ccccc2)nc(Oc2ccc(OCCOc3ccc(Br)cc3)nn2)n1	0.5	.
Cc1ccc(NC(=O)Cn2nnc(C(=O)Nc3ccc(Br)cc3)c2N)cc1F	1.7	.
COCCOC(=O)C1=C(C)NC(SC)=C(C#N)C1c1ccccc1Cl (stereo not given)	2.9	0.253
CC(Oc1coc(CN2CCN(Cc3ccccc3)CC2)cc1=O)c1ccccc1 (stereo not given)	-0.2	1.25
COc1ccc2[nH]c(C(=O)NCCN3CCCCC3)cc2c1	-7.5	0.333
O=C(O)C1C2C=CC(O2)C1C(=O)NCc1ccccc1Br (stereo not given)	0.0	0.691
Cc1[nH]c(=O)c(C#N)c(C)c1CCC(=O)N1CCN(S(=O)(=O)c2ccc(Cl)s2)CC1	0.5	.
COc1cc(Nc2ncnc3c2cnn3-c2ccc(Cl)cc2)cc(OC)c1OC	2.1	-0.788
CCCN(CC(=O)Nc1ccc(S(N)(=O)=O)cc1)C(C)C(=O)Nc1cccc(Cl)c1 (stereo not given)	-0.4	.
CC(C)CNc1nc(SCC(N)=O)nc(N(C)C)n1	-0.9	0.528
CCN(CC)C(=O)N1CC(C)CC(C)C1 (stereo not given)	3.9	-0.923
CN(C(=O)CN1CCN(c2ccccc2O)CC1)c1ccccc1	0.3	.
CC(Nc1ncnc2c1cnn2C)C1CC2CCC1C2 (stereo not given)	0.6	0.143
CCc1c(C)sc(NC(=O)c2cnn3cccnc23)c1C#N	2.6	-0.413
CC(C)CNC(=O)c1nc(-c2ccccc2)n(-c2ccccc2)n1	2.2	.
N=C(N=C(N)N)N(c1ccccc1)c1ccccc1	2.6	-1.16
CCN(CC)C(=O)c1ccccc1NC(=O)c1ccccc1	0.8	0.128
CN(C)/C=C/C(=O)c1ccsc1	0.7	.
CN(C(=O)CN1C(=O)C2CC=CCC2C1=O)C1CCS(=O)(=O)C1 (stereo not given)	2.0	.
CC1(C)CC(=O)C(C=NCC(O)CO)=C(O)C1 (stereo not given)	-1.5	0.359
O=C(Nc1ccccc1C(F)(F)F)c1noc2c1CCc1ccccc1-2	1.1	-0.374
O=C(O)c1ccc(-c2nnc(-c3ccccc3Cl)o2)cc1	4.0	.
O=C(Nc1ccc(-n2cnnn2)cc1)c1ccccc1C(F)(F)F	-3.6	.
